From PubChem BioAssay
Calb biofilm kill: clotrimazole potentiators killing C. albicans biofilm, primary screen, 4-compound mixtures | C. albicans biofilm persisters + clotrimazole, fluorescence viability; primary screen in compound mixtures of four per well | hit rate 0.02% among 120,000 | inhibition, % at 7.6 µM;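 active = inhibition above 30.3% in the primary screen of four-compound pools, then above 30% when the compound was retested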;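 note: compounds exposed to preformed 24 h biofilms for 48 h; the number belongs to the whole pool; some results filed as inactive read as strong as hits; inactives centre near 12; 0% = biofilm with clotrimazole alone and 100% = kill control; retested singly at about 60 µM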
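Test system: C. albicans CAF4-2 wild-type biofilms; buffer or medium: RPMI/MOPS medium, pH 7.0; schedule: 24 h biofilm formation, then 48 h compound exposure, 37 °C; detection: Alamar Blue fluorescence; measure: percent inhibition of biofilm viability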
Active calls of the source: *. A portion of the library, so the mix of outcomes need not match the whole.

SMILES	Calb biofilm kill
C/C(CC(=O)NC12CC3CC(CC(C3)C1)C2)=N\NC(=O)Cc1cccs1	11.2
CC(C)C(NC(=S)Nc1ccccc1)C(=O)O (centres undefined)	-1.6
CCc1cccc(CC)c1NC(=S)NCCc1ccc(O)c(O)c1	3.3
CC(=O)Nc1ccc(NC(=O)c2ccccc2S(=O)(=O)c2ccccc2[N+](=O)[O-])cc1	11.2
Cc1ccc(OCc2nnc(SC(C)C(=O)O)n2Cc2ccccc2)cc1 (centres undefined)	20.2
O=C1/C(=C\c2cccnc2)CN(Cc2ccccc2)C/C1=C\c1cccnc1	10.1
C/C(=N\NC(=S)Nc1ccc(C)cc1)c1cccc(N)c1	8.7
CNC(=O)c1cc2ncc(C(F)(F)F)cc2s1	2.1
NC(=O)NC(=O)COC(=O)CCCSc1nc2ccccc2s1	9.4
CCOc1ccc(CCNC(=O)CSc2cc(=O)n(C)c3cc(Cl)ccc23)cc1OCC	9.3
C(=N\Nc1nc(Nc2ccccc2)nc(N2CCCCC2)n1)/c1ccco1	28.6
COc1cccc(OCC(=O)NNC(=S)Nc2ccc(Cl)cc2Cl)c1	22.9
Cc1cccc(CSCCNC(=O)CCSc2ccccc2)c1	7.6
O=c1c2ccccc2nc2ccccn12	12.2
Cc1ccc(C(=O)CSc2nc3ccccc3c(=O)[nH]2)cc1C	0.1
COc1ccccc1N(C)S(=O)(=O)c1ccc(C(=O)OCC(=O)N2CCC2)cc1	8.4
CCOc1cc(/C=N/NC(=O)C(C)Sc2ccccc2)ccc1O (centres undefined)	26.4
CC(=O)n1nc(-c2ccc(C)cc2)nc1NCc1ccco1	62.0
COc1ccc2c(CC(=O)OCC(=O)Nc3ccc(S(N)(=O)=O)cc3)coc2c1	5.3
CC(=O)Nc1ccc(Nc2cc(C(C)C)nc3c(-c4ccccc4)c(C)nn23)cc1	12.8
COc1ccccc1N1CCN(CC(=O)NCC2CCCO2)CC1 (centres undefined)	18.3
Cc1ccc2[nH]c(=O)c(CN(CC3CCCO3)C(=S)Nc3ccccc3)cc2c1 (centres undefined)	16.1
O=C(O)c1ccccc1C(=O)c1ccc(Sc2ccc(Cl)cc2)c([N+](=O)[O-])c1	14.8
O=C(Nc1ccc(F)c(Cl)c1)NC1CC1	15.2
O=C(O)c1ccc(N2C(=O)/C(=C/C=C/c3ccccc3)SC2=S)cc1	3.9
COCCN(C(=O)CN1CCN(S(=O)(=O)c2ccc(F)cc2)CC1)c1c(N)n(Cc2ccccc2)c(=O)[nH]c1=O	16.8
Nc1c(Cl)ncnc1N1CCCC1	27.2
COc1ccccc1CNC(=O)CN(C)S(=O)(=O)c1cccc2cccnc12	26.1
COCCCNC(=O)CSc1c2c(nc3ccc(Cl)cc13)CCCC2	20.5
Nc1nc(SC23CC4CC(CC(C4)C2)C3)ns1	20.7
COc1ccc(NC(=O)c2nc[nH]c2C(=O)N2CCN(c3ccccc3)CC2)cc1	9.6
O=C(c1ccc(Cl)cc1[N+](=O)[O-])N1CCN(c2ccccn2)CC1	5.7
NNC(=O)c1ccc(COc2ccc3c(c2)CCC3)cc1	18.9
Cc1nc2n(COCCO)cnn2c(=O)c1Br	9.9
O=C(O)/C=C/C(=O)Nc1ccccc1C(=O)OCC(=O)c1ccc2c(c1)OCCO2	1.8
CCCCSCc1nc2ccccn2c1Br	18.9
Cc1nn(Cc2ccccc2)c(C)c1NC(=O)CCCn1nc(C)c([N+](=O)[O-])c1C	13.7
CC(C)NC(=O)NC(=O)COC(=O)c1cccc(OC(F)F)c1	11.3
OCCC1CN(Cc2nc(-c3ccccc3)cs2)CCN1C1CCCC1 (centres undefined)	18.6
COCCN(C(=O)CCc1ccccc1OC)c1nnc(-c2cccnc2)s1	27.0
CC(C)c1nc(NCCO)c(C#N)c2c1CCCC2	17.4
COc1ccc(/C=C/C(=O)ONC2=NCCCCC2)cc1OC	9.1
Cc1cc(-c2csc(N)n2)c(C)n1Cc1ccccc1	9.2
Cc1ccc(N/N=C(\Cc2nc3ccccc3[nH]2)c2ccccc2)cc1	20.1
CCOC(=O)C1=C(C)N=C2SCCC(=O)N2[C@@H]1c1cccs1	18.1
COc1cc(C(=O)NCCCNc2nc3cc(C)c(C)cc3cc2C#N)cc(OC)c1OC	11.3
CC(C)NC(=S)N1CCC(Cc2ccccc2)CC1	13.5
Cc1cc(C)cc(NC(=O)COC(=O)CCCC2=NS(=O)(=O)c3ccccc3N2)c1	18.1
N#C/C(=C\c1ccc(OCc2ccc(F)cc2)cc1)C(=O)Nc1cccc(C(=O)O)c1	27.4
CCCn1c(SCC(=O)Nc2ccc(C(=O)Nc3ccccc3OC)cc2)n[nH]c1=O	5.9
CCc1cccc(C)c1NC(=S)N(CCN(C)C)C(C)c1cccnc1 (centres undefined)	11.3
Cc1ccc(S(=O)(=O)N(C)C)cc1NC(=O)C1CCC1	28.2
O=C(O)C1=C[C@@H](c2csc3ccccc23)C[C@@H](OCCCCO)O1	14.6
NC(=S)N=Nc1c(O)[nH]c2c(Br)cc(Br)cc12	8.9
CCOC(=O)CSc1nc(C)cc(Oc2ccc(=O)n(C)n2)n1	0.3
O=C1N=C(N2CCCC2)S/C1=C\c1cn[nH]c1-c1ccccc1	16.2
Cc1ccc(S(=O)(=O)N2CCOCC2)cc1NC(=O)CSc1nc2ccccc2c(=O)n1Cc1ccccc1	8.7
Cc1ccc(CNC(=O)CN(C)S(=O)(=O)c2cnc[nH]2)cc1	21.2
CN1CCN(c2ccccc2NC(=O)c2c(F)cccc2F)CC1	6.6
O=C(Cc1ccc(F)cc1)NCC1CCCO1 (centres undefined)	19.1

Fetched by structure from the entries so far (two):
SMILES	Calb biofilm kill
O=C1N=C(N2CCCC2)S/C1=C\c1cn[nH]c1-c1ccccc1	16.2
CN1CCN(c2ccccc2NC(=O)c2c(F)cccc2F)CC1	6.6

The results go on:
SMILES	Calb biofilm kill
O=C(CN1C(=O)NC(Cc2ccccc2)C1=O)Nc1ccc(F)cc1 (centres undefined)	7.4
CC(C)(O)C#Cc1ccc(C(=O)NCCc2ccc(S(N)(=O)=O)cc2)cc1	-8.3
COc1ccccc1CNC(=S)Nc1cc(C)ccc1C	-0.6
C=CCNC(=O)c1onc(CSc2ccncc2)c1C(=O)NCC=C	7.6
COc1ccc(Nc2cc(C(=O)NCc3ccco3)c3ccccc3n2)c(OC)c1	2.5
Cc1ccccc1C(=O)NN1CCOCC1	16.0
CN(C)C(=S)NC(=O)C12CC3(C)CC(C)(CC(C)(C3)C1)C2	6.7
Cc1ccc(-n2nc(CC#N)c(C#N)c2N)cc1Cl	19.2
NC(=O)c1c(NC(=O)c2cccnc2Cl)sc2c1CCCC2	21.2
O=C(CN1CCCCC1)N1CCN(S(=O)(=O)c2ccccc2)C1	4.2
Cc1cc(C)nc(SCc2cc(=O)c(OC(=O)c3ccc(Br)o3)co2)n1	21.7
Cc1ccnc(NC(=O)COc2ccc(Cl)cc2)n1	14.5
CCOC(=O)C1(Cc2cccc(F)c2)CCN(Cc2cnc(C)s2)CC1	9.6
CCOc1ccccc1NC(=S)NCCc1ccccc1	22.0
Cc1ccc(C2Nc3ccccc3C(=O)N2CCN2CCNC2=O)cc1 (centres undefined)	3.3

In a second layout: results already given.
Compound | Calb biofilm kill
O=C(CN1C(=O)NC(Cc2ccccc2)C1=O)Nc1ccc(F)cc1 (centres undefined) | 7.4
Cc1ccc(-n2nc(CC#N)c(C#N)c2N)cc1Cl | 19.2
Cc1ccccc1C(=O)NN1CCOCC1 | 16.0
NC(=O)c1c(NC(=O)c2cccnc2Cl)sc2c1CCCC2 | 21.2
CCOc1ccccc1NC(=S)NCCc1ccccc1 | 22.0
Cc1cc(C)nc(SCc2cc(=O)c(OC(=O)c3ccc(Br)o3)co2)n1 | 21.7

(cont.)
SMILES	Calb biofilm kill
O=Nc1c(-c2cccc([N+](=O)[O-])c2)nc2ncccn12	22.2
Cc1cc(C)nc(NC(=O)CCC2CCCC2)c1	14.5
Cc1cc([N+](=O)[O-])nn1CC(=O)Nc1nccs1	11.8
O=c1oc2ccccc2c(O)c1Cc1cc(Cl)c2cccnc2c1O	20.0
COc1ccc(N(C)C(=O)c2oc(=O)c3ccccc3c2-c2ccc(C)cc2)c(OC)c1	12.1
CCOC(=O)C1=C(N)OC2=C(C(=O)CC(C)(C)C2)C1c1ccc(C)s1 (centres undefined)	17.6
COc1ccc(COc2ccc(C3C(S(=O)(=O)c4ccccc4)CON3C)cc2OC)cc1 (centres undefined)	16.8
O=[N+]([O-])c1cc(-c2ccc(C(=S)N3CCOCC3)o2)ccc1Cl	20.7
O=C(O)CC(NC(=O)c1ccc2c(c1)OCO2)c1cccc([N+](=O)[O-])c1 (centres undefined)	13.2
O=C(O)CC1NC(=O)N(C2CCCCC2)C1=O (centres undefined)	4.3
O=C(COc1ccccc1[N+](=O)[O-])OC1CCS(=O)(=O)C1 (centres undefined)	24.2
O=C(NCc1ccccn1)C(C(=O)c1cccc([N+](=O)[O-])c1)n1cc(Cl)ccc1=O (centres undefined)	-5.9
Cc1[nH]c2ccc(C(=O)NCC(C)(C)N3CCOCC3)cc2c1C	1.1
CCCC1CCC(=NNC(=O)OC(C)(C)C)CC1 (centres undefined)	2.9
CCS(=O)(=O)C1=NSC2=NC(=O)/C(=C\c3cc(C)n(-c4cccc(OC)c4)c3C)C(=N)N21	20.9
CCc1ccc(NC(=O)C(=O)N/N=C(\C)CC(=O)Nc2ccc(OC)cc2)cc1	24.5
COc1ccc(CCC(C)NCC2CCCCC2)cc1 (centres undefined)	17.0
COc1ccccc1C(=O)NNC(=O)c1sccc1-n1cccc1	10.3
COc1ccc(-c2nnn(CC(=O)N(CCCN3CCOCC3)C(C(=O)NC3CCCC3)c3ccc(C)o3)n2)cc1 (centres undefined)	9.7
CSc1nc2c(c(=O)n1-c1ccc(F)cc1)SCC2	18.8
COc1ccc(-c2nc(/C=C3\C(C)=Nc4ccccc43)c(O)o2)cc1	9.5
COc1ccc(C2CC(c3cccs3)Nc3nnnn32)cc1 (centres undefined)	11.5
COCCn1c(SCC(=O)Nc2ccc3[nH]c(=O)[nH]c3c2)nc2ccccc2c1=O	0.9
O=C(COC(=O)c1ccc2ncsc2c1)Nc1ncc(Cl)cc1Cl	5.7
O=C(O)/C=C/C(=O)NCCc1ccc(Cl)cc1	23.3
Cc1cccc(/C=C/c2nc3ccccc3c(=O)[nH]2)c1	22.7
O=C(COC(=O)[C@@H]1CCCN1S(=O)(=O)c1ccccc1F)c1ccccc1	18.6
COC(=O)C[N+](C)(C)C/C=C\c1ccccc1	15.3
C=CC[N+](C)(C)CCN1C(=O)C2C(c3ccccc3)C=CC(c3ccccc3)C2C1=O (centres undefined)	-2.1
O=C(COc1ccc([N+](=O)[O-])cc1)N(Cc1ccccc1)Cc1ccccc1	7.7
O=Cc1cn(CC(=O)N2CCOCC2)c2ccccc12	14.2
CCOC(=O)C(=O)N/N=C/c1cccc(Br)c1	1.2
OCCC1CN(Cc2c(O)ccc3ccccc23)CCN1CCc1ccccc1 (centres undefined)	9.5
O=C(Nc1ccc2[nH]c(=O)[nH]c2c1)c1cc(F)c(F)cc1Cl	17.3
CC(=O)OCC1=C(C(=O)O)N2C(=O)C(NC(=O)CCn3nc(C(F)(F)F)c(Br)c3C3CC3)C2SC1 (centres undefined)	8.3
CC(NC(=O)c1ccc2c(c1)OCO2)C(c1cccs1)N1CCOCC1 (centres undefined)	12.1
CC(=O)Nc1cccc(-c2csc(N)n2)c1	14.7
CCc1cc(C(=O)OC)c(NC(=O)CC2SC(N)=NC2=O)s1 (centres undefined)	6.5
CS(=O)(=O)c1ccc(C(=O)N2CCc3ccccc3C2)cc1	10.0
C=CCn1c(SC2CCOC2=O)nc2sc(C)c(C)c2c1=O (centres undefined)	10.1
Cc1cc(NC(=O)Nc2ccccc2F)ccc1Br	7.3
CCCCNC(=O)N1CCN(S(C)(=O)=O)CC1	17.8
Cc1c(N(C(=O)CNC(=O)c2ccccc2)C2(C(=O)NC3CCCCC3)CCCCC2)c(=O)n(-c2ccccc2)n1C	7.4
CCOC(=O)c1c(C)oc2c(CC(=O)c3ccccc3)c(Cl)c(O)c(O)c12	5.0
Cc1n[nH]c(=S)n1/N=C/c1ccc(OCc2ccc(Cl)cc2Cl)cc1	12.5

Some of the entries so far, in CSV form.
smiles,Calb biofilm kill
O=C(Nc1ccc2[nH]c(=O)[nH]c2c1)c1cc(F)c(F)cc1Cl,17.3
CN1CCN(c2ccccc2NC(=O)c2c(F)cccc2F)CC1,6.6
O=c1c2ccccc2nc2ccccn12,12.2

New compounds follow.
SMILES	Calb biofilm kill
CNC(=S)NCCC(c1ccccc1)c1ccccc1	12.0
CNC(=S)Nc1ccc(C)cc1	3.8
COC(=O)c1c(C)nc(C)c(C(=O)OC)c1-c1ccc(OC)c(OC)c1	17.5
Nc1c(N2CCCCC2)c2ccccc2oc1=O	12.1
CC1CC(C)CN(C(=S)NC2CCCCC2)C1 (centres undefined)	7.6
Cc1sc(NC(=O)c2ccc(=O)n(C)n2)nc1-c1ccccc1	2.7
COc1ccc(/C=C2\SC(=S)N(CC(=O)NCCO)C2=O)cc1	11.0
Cn1c(=O)c2c(ncn2CCC(=O)N/N=C/c2cccnc2)n(C)c1=O	21.8
CCCCCCCC[n+]1cccc2c3ccccc3ccc21	21.0
CN(CCCOc1ccccc1Br)Cc1ccccc1	7.8
S=C(NCCCN1CCOCC1)NCCCN1CCOCC1	4.5
CCOc1ccc(NC(=O)Nc2ccc(Cc3ccncc3)cc2)cc1	13.1
